D2 potentiator = potentiates the human D2 dopamine receptor allosterically; 360,000 tested, 0.23% active; P14416; DiscoveRx D2 beta-arrestin cells, luminescence, 90 min; 100% = 57 uM dopamine signal; AID 624464; potentiation, % (no concentration beside the values); active = potentiation of 50% or more; inconclusive = 30% to 50%; inactive = 30% or less;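 note: compound concentration not given in the record; tested on top of an EC20 dose of dopamine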
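D2 cells co-treated with compound plus 50 nM dopamine (EC20) for 90 min at 37 deg C to detect potentiation. Beta-arrestin recruitment was read as enzyme-fragment luminescence after 1 h at ambient temperature. Full response was set by 57 uM dopamine.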
D2 ag = agonists of human D2 dopamine receptor (beta-arrestin). AID 624465. activation, % (test concentration not listed). P14416. 360,000 tested, 0.084% active. DiscoveRx PathHunter D2 beta-arrestin, luminescence, 90 min; 100% = 57 uM dopamine signal; in the data active = activation above about 40%; inconclusive = about 15% to 40%; inactive = below about 15%; note: compound concentration not given in the record; the text of the record calls up to 30% inactive
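DiscoveRx PathHunter D2 beta-arrestin cells (2,100/well) attached overnight, then compound-stimulated 90 min at 37 C in HBSS/10 mM HEPES/0.1% Tween-20 buffer; beta-galactosidase complementation read by luminescence after 1 h at ambient temperature. Dopamine 57 uM final (EC100) as control.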
Six1-Eya2 inh = blocks human Six1 binding to Eya2. 360,000 tested, 0.56% active. AlphaScreen GST-Six1/His-Eya2 binding, biochemical; hits give low values; control for the full effect not named in the record. activity change, % (test concentration not listed). Q15475+O00167; in the data active = activity change below about -65%; inconclusive = about -30% to -65%; inactive = above about -30%; note: % is set by controls: 0 for no effect and ±100 for the full control effect; compound concentration not given in the record
Target sequence (O00167 whole entry, looked up): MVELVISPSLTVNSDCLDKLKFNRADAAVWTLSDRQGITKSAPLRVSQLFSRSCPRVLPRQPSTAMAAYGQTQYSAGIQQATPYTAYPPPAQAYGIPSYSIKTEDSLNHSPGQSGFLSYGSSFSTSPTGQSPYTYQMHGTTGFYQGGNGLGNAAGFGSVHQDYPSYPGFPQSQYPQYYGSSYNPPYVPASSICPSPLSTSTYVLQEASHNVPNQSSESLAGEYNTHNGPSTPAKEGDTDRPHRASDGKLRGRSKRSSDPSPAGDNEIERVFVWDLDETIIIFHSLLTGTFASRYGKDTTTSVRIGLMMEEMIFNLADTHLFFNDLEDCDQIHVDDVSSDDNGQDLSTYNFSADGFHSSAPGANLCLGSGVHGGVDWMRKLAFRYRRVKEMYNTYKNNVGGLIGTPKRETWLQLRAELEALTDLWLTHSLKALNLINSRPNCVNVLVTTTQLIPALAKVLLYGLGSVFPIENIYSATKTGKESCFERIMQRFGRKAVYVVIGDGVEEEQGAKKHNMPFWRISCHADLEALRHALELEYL
Target sequence (Q15475 whole entry, looked up): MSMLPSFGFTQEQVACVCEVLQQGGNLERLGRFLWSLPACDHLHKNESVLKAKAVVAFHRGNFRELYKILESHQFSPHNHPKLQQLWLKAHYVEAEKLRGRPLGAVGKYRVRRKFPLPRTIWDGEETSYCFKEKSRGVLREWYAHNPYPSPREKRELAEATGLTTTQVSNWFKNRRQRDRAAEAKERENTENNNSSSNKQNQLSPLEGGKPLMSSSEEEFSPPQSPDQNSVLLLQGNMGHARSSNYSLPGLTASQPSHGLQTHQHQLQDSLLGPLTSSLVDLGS
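GST-Six1 + His-Eya2 (5X stock: 250/500 nM); Tris pH 8.0, 300 mM NaCl, 0.05% BSA, 0.02% Tween 20; GSH donor/Ni acceptor beads; 1 h 37 °C dark; AlphaScreen readout.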
TRPML1 agonist = agonists of human TRPML1 channel; activation, % (no concentration beside the values); AID 624414; 410,000 tested, 0.12% active; TRPML1-expressing cells, Ca2+ dye fluorescence, FDSS; host cell line not named in the record; reference of the full effect not given here; Q9GZU1; in the data active = activation above about 50%; inconclusive = about 30% to 50%; inactive = below about 30%; note: 0% is about no effect; the text of the record puts the active cut at 80%
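In this qHTS format, compounds were pin-transferred onto Ca8-dye-loaded TRPML1-DL cells induced with Tet overnight, and intracellular Ca2+ fluorescence was recorded kinetically for 110 s after a 10 s baseline. A subsequent 4uM final 54-4 (EC80) addition followed by a second 110 s read served as the antagonist phase.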
PINK1 modulator = modulators of PINK1 expression. 410,000 tested, 0.2% active. PINK1 immunofluorescence, high-content cytometry, 24 h. Potency, µM (highest dose often 76.6 µM), inactives show top-dose activation (PINK1 increase), actives largely listed as activators. AID 624263; active = well fitted activation curve with a large enough effect; inconclusive = small, poorly fitted or top-dose-only effect; inactive = flat fitted curve, though single readings scatter; cell line not stated here;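 note: potency is the fitted concentration of half-maximal effect; % of control where 0% means no effect; nearly all actives have a fitted effect of over 65% in size; a mitochondrial uncoupler was the plate control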
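Readout is PINK1 immunofluorescence, quantified alongside mitochondrial, cell and nuclear markers by laser-scanning microplate cytometry. Cells from a stable line were exposed to compound titrations (5 concentrations) for 24 hours, with CCCP controls.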
TRPML1 inh = human mucolipin-1 channel inhibition; 390,000 tested, 0.02% active; TRPML1-inducible cells, Ca2+ dye fluorescence, FDSS; hits give low values; inhibition of EC80 agonist-evoked calcium signal; Q9GZU1; activity change, negative = inhibition, % (no concentration beside the values); AID 624415; in the data active means activity change below about -50%; inconclusive means about -30% to -50%; inactive means above about -30%;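 note: stimulus is agonist 54-4 at its EC80 concentration; % is set by controls: 0 for no effect and ±100 for the full control effect; compound concentration not given in the record; the text of the record puts the active cut at -80%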
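TRPML1-DL cells, Tet-induced overnight (~16 h, 37 °C) at 1,500 cells/well, were loaded with Ca8 no-wash dye plus quencher for 45-90 min at room temperature. Compounds were pinned during FDSS kinetic reading; agonist 54-4 at EC80 (4 uM final) then added.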
* = called active by the depositor; ? = inconclusive; / = not tested or not shown; & = joins results of further samples; [ ] = another dose, or the depositor's remark.

Order of results: D2 potentiator | D2 ag | Six1-Eya2 inh | TRPML1 agonist | PINK1 modulator | TRPML1 inh
- CC(C)(CNc1ccc(C(F)(F)F)cc1[N+](=O)[O-])N1CCOCC1
 : -2 | -1.7 | -9 | -0.1 | 4.4% | 21
- Cc1ccccc1Cn1cc(NC(=O)c2cc3nc(-c4ccco4)cc(C(F)(F)F)n3n2)cn1
 : -4 | -2.5 | -16 | 0.1 | 8.9% | 2
- Cc1c(C(=O)NCc2cccs2)oc2ccc(Br)cc12
 : -4 | -1.6 | 13 | 5.7 | 0.0% | 8
- Cc1[nH]c(=O)[nH]c(=O)c1Sc1ccccc1[N+](=O)[O-]
 : -5 | -4.6 | -8 | 0.8 | -0.2% | 0
- N#Cc1ccccc1COC(=O)c1cccc(S(=O)(=O)N2CCCC2)c1
 : -2 | 5.0 | 6 | 2.9 | 6.1% | 77
- CCOC(=O)c1cc(C)sc1NC(=O)C(c1ccccc1)c1ccccc1
 : -2 | 2.0 | 2 | 2.0 | 1.2% | -1
- O=C(CSc1nnc(-c2ccncc2)n1Cc1ccccc1)NCCc1ccccc1
 : -6 | -2.2 | -2 | -0.7 | 0.3% | -6
- O=C(CSc1ncccn1)Nc1cccc(S(=O)(=O)N2CCOCC2)c1
 : -32 | -0.9 | -1 | -0.6 | 0.1% | -5
- CCNc1nc(OC)nc(N(OC)S(=O)(=O)c2ccc(C)cc2)n1
 : -12 | 1.0 | -3 | 0.3 | 1.3% | 10
- S=C(NNC(=S)Nc1ccc(Cl)cc1)NNc1ccccc1
 : -12 | -4.3 | -3 | -0.6 | 1.1% | -8
- Cc1cc(C)cc(Nc2cnn(C34CC5CC(CC(CC(=O)O)(C5)C3)C4)c(=O)c2Cl)c1
 : 1 | 1.2 | 2 | -0.5 | 1.3%[38.3 µM] | -12
- CCc1c(C(=O)NNC(=S)Nc2ccc(S(=O)(=O)Nc3ncccn3)cc2)csc1C
 : -4 | -8.0 | 9 | -0.1 | 0.5% | -14
- COc1ccc(N2CCN(c3ncnc4scc(-c5ccc(F)cc5)c34)CC2)cc1
 : -15 | -0.1 | ? | 2.9 | 4.2% | 80
- COc1ccc(CCN2C(=O)NC(NS(=O)(=O)c3ccc(N)cc3)(C(F)(F)F)C2=O)cc1OC (configuration not stated)
 : -3 | 0.5 | -3 | 0.3 | -1.1% | 15
- COc1ccc(-c2cc(=O)oc3c(C)c(OCC(=O)Nc4cccnc4)ccc23)cc1
 : -2 | -2.1 | -6 | -0.4 | 5.4% | -9
- CC(=O)c1ccc(OCC(O)CN2C(C)(C)CC(O)CC2(C)C)cc1 (configuration not stated)
 : -4 | -2.9 | -1 | -0.3 | -1.2% | 5
- Cc1cc(C)n(-c2cccc(Cl)c2)c(=O)c1C#N
 : -3 | -2.4 | -1 | -0.1 | -1.2% | -15
- Cc1cc(C)nc(N/N=C/C2=C(N3CCOCC3)C(=C/c3ccccc3)/CC2)n1
 : -26 | -4.7 | 5 | 0.0 | -0.8% | -4
- N#Cc1ccc(NC(=O)COC(=O)CCNS(=O)(=O)c2ccccc2)cc1
 : -10 | -1.0 | -2 | 1.3 | -0.2% | -15
- CN(C)c1ccc(CNS(=O)(=O)c2csc(C(N)=O)c2)cc1
 : -5 | 6.6 | 4 | 0.3&0.4 | 0.0%&4.8% | 18&-6
- CCOC(=O)c1ccccc1NC(=O)CCNC(=O)Cn1cnc2ccccc2c1=O
 : -16 | -3.9 | -1 | -0.9 | 2.1% | 5
- COc1c(C)cc(C(=O)C2CCCN(Cc3c(C)n(C)n(-c4ccccc4)c3=O)C2)cc1C (configuration not stated)
 : -17 | -1.0 | 3 | -0.8 | -0.5% | -6
- CCc1cc2c(cc3c(=O)n(CC(=O)N4CCN(c5cccc(C)c5C)CC4)nc(CC)n32)s1
 : / | / | / | 1.0 | 0.8% | 1
- CC(=O)SC1CC(=O)N(c2c(C)cccc2C)C1=O (configuration not stated)
 : -9 | -7.2 | -12 | 0.8 | 2.3% | 14
- COc1ccc(CN(Cc2ccc(C(=O)O)cc2)C(=S)Nc2ccccc2F)cc1OC
 : -1 | -3.4 | 6 | 0.1 | -0.1% | -5
- Cc1ccc(S(=O)(=O)n2nnc3ccccc32)c(C)c1C
 : 2 | -0.8 | 7 | 0.3 | -1.5% | 41
- O=C(C1CCCN(S(=O)(=O)c2ccc(Br)s2)C1)N1CCN(c2cccc(Cl)c2)CC1 (configuration not stated)
 : / | / | / | 4.7 | 0.2% | 46
- O=C(COC(=O)/C=C/c1ccc(OC(F)F)cc1)NC1CCCCCC1
 : 5 | -1.1 | -2 | 2.0 | 1.8% | 43
- Cc1ccc(Cn2c(CCNc3nc(-c4ccc(C)cc4)cs3)nc3cc(C(=O)NCCCO)ccc32)cc1
 : -15 | -3.0 | 9 | -0.2 | 2.3% | -13
- COc1cc(/C=N/NC(=O)C(=O)N2CCCCCC2)ccc1O
 : -1 | -1.2 | -13 | 0.7 | 0.4% | 10
- CCCCNC(=O)c1ccc(NS(=O)(=O)c2ccc3[nH]c(=O)[nH]c3c2)cc1
 : -10 | -4.0 | -6 | -0.1 | 1.6% | 2
- CC1CCN(S(=O)(=O)c2ccc(S(=O)(=O)N3CCCC3)cc2)CC1
 : -8 | -1.0 | -2 | -0.2 | 1.6% | 17
- COc1cccc(OCCNc2cc(N3CCOCC3)ccc2[N+](=O)[O-])c1
 : -3 | 1.0 | ? | 0.5 | 4.0% | 18
- COc1ccc(N2C(=O)CCSC23C(=O)N(Cc2ccc(F)cc2)c2ccccc23)cc1 (configuration not stated)
 : / | / | / | 2.0 | 1.5% | 13
- COc1ccccc1NC(=O)CSc1nnc(-c2ccc(C)cc2)o1
 : -16 | -5.1 | 3 | -0.2 | 0.7% | 11
- Cc1ccc(C)c(NC(=O)C2CC3c4ccccc4C2c2ccccc23)c1 (configuration not stated)
 : -6 | -2.6 | -1 | 2.0 | 8.9% | -9
- O=C(c1ccc2c(c1)N(Cc1ccc(F)cc1)C(=O)c1ccccc1S2(=O)=O)N1CCCCC1
 : / | / | / | 1.0 | 1.7% | 22
- Cc1ccc(NC(=O)Cn2c(/C=C/c3ccccc3)nc3ccccc32)cc1C
 : -6 | 0.3 | 4 | 0.9 | 17%[38.3 µM] | 6
- CC(C)CCNC(=O)C(C)N(C(=O)c1snc(C(N)=O)c1N)c1cnc2ccccc2c1 (configuration not stated)
 : -14 | -3.7 | 11 | 0.1 | -0.1% | -4
- CCOC(=O)C1CCN(C(=O)CNC(=O)c2nn(-c3ccc(OC)c(Cl)c3)c(=O)c3ccccc23)CC1
 : 11 | -2.3 | -8 | 0.4 | 3.1% | -1
- O=C(CS(=O)(=O)c1ccccc1)N1CCN(c2ccccc2)CC1
 : 0 | -3.9 | -1 | 1.2 | -2.7% | 35
- O=C(O)CC(NS(=O)(=O)c1cccc2nsnc12)c1ccc(F)cc1 (configuration not stated)
 : -2 | -1.9 | 2 | -0.3 | -0.4% | 10
- O=C(NC1CC1)C1=C[C@H](c2coc3ccccc3c2=O)C[C@H](OCc2ccc(CO)cc2)O1
 : 0 | -2.0 | 0 | 0.7 | 0.8% | -2
- O=C1CCN(C(=O)c2ccccc2)c2ccccc21
 : -7 | -5.1 | 1 | -0.4 | 1.1% | 3
- Cc1noc(C)c1COc1ccc(C(=O)N(C)CCOc2ccccc2)cc1
 : -2 | 12 | 5 | 0.0 | -1.0% | -14
- COc1ccc(/C=N/NC(=O)c2ccccc2Cl)cc1CSc1nc2ccccc2s1
 : -5 | -1.9 | -6 | 1.5 | 10%[38.3 µM] | -4
- CCOc1ccccc1NC(=O)N1CCc2cc(S(=O)(=O)N3CCC(C)CC3)ccc21
 : / | / | / | 0.1 | -0.7% | 24
- CCCC1NC(=O)c2cccnc2-n2c1nc1ccccc1c2=O (configuration not stated)
 : 1 | -2.0 | -4 | 0.0 | -0.3% | 1
- Cc1cc(C)cc(NC(=O)C(OC(=O)c2sccc2C)c2ccccc2)c1 (configuration not stated)
 : -11 | -5.2 | 7 | 0.5 | 4.3% | -15
- COC(=O)CSC1=C(C#N)C(c2ccc(C)cc2)C2=C(CCCC2=O)N1 (configuration not stated)
 : -6 | 0.4 | -5 | -0.9 | 0.1% | 66
- Cc1c(C)c2c(OCC(=O)NCC(C)C)cc3c(c2oc1=O)CCC(C)(C)O3
 : -1 | -12 | -10 | 1.2 | -1.2% | 34
- Cc1cc(-c2ccccc2)n(-c2ccccc2)n1
 : 1 | 7.1 | 18 | -0.2 | 3.0% | 3
- CCN(C(=O)COC(=O)CN1C(=O)c2ccccc2C1=O)c1ccccc1
 : -3 | -0.8 | -1 | 0.1 | 0.1% | 13
- O=C(c1ccc(Br)o1)N1CCN(c2ncccn2)CC1
 : -15 | -2.8 | -3 | 0.0 | 0.5% | 16
- Cc1c(C(=O)Nc2ccc(N3CCOCC3)cc2)oc2ccccc12
 : -8 | 0.3 | -11 | 0.8 | -2.8% | 11
- CCC(=O)Nc1ccc(S(=O)(=O)N2CCN(c3ccc(F)cc3)CC2)cc1
 : 1 | -1.6 | -1 | 0.2 | 14%[38.3 µM] | -6
- COc1ccc(C(=O)O/N=C(\N)c2ccc(Cl)cc2)cc1
 : 0 | ? | -1 | 1.8 | -1.7% | 27
- O=C(O)CCSc1nc2ccccc2n1-c1ccccc1
 : -5 | -3.3 | -1 | 0.3 | 2.9% | -12
- COc1cccc(CNS(=O)(=O)c2cc3c(cc2C)NC(=O)CO3)c1
 : 7 | 6.9 | 1 | -0.2 | 0.5% | -9
- Cc1ccccc1NS(=O)(=O)c1nnc(NC(=O)CC(C)C)s1
 : -11 | -5.6 | -25 | / | 0.7% | /

Shown field by field: entries from further up.
COc1cccc(CNS(=O)(=O)c2cc3c(cc2C)NC(=O)CO3)c1
  D2 potentiator: 7
  D2 ag: 6.9
  Six1-Eya2 inh: 1
  TRPML1 agonist: -0.2
  PINK1 modulator: 0.5%
  TRPML1 inh: -9
Cc1ccccc1NS(=O)(=O)c1nnc(NC(=O)CC(C)C)s1
  D2 potentiator: -11
  D2 ag: -5.6
  Six1-Eya2 inh: -25
  TRPML1 agonist: /
  PINK1 modulator: 0.7%
  TRPML1 inh: /

(list continues)
Order of results: D2 potentiator | D2 ag | Six1-Eya2 inh | TRPML1 agonist | PINK1 modulator | TRPML1 inh
- COc1cccc(-c2nnc(NC(=O)c3ccc(S(=O)(=O)N(CC(C)C)CC(C)C)cc3)o2)c1
 : 7 | -2.0 | 14 | -0.9 | 2.5% | 10
- Fc1ccc(CNC(=S)Nc2ccccc2F)cc1
 : -23 | 2.0 | 16 | -0.7 | 0.7% | 0
- CC(C)(C)OC(=O)N1CCC(c2c(C(=O)NCCc3ccsc3)cnn2-c2ccccc2Cl)CC1
 : / | / | / | 1.6 | 1.7% | -5
- COc1ccc(S(=O)(=O)N(CC(=O)Nc2ccc(S(=O)(=O)N3CCOCC3)cc2)Cc2ccc(F)cc2)cc1
 : 3 | 2.4 | -3 | 0.3 | 1.4% | 3
- O=C(N/N=C\c1ccc[nH]1)c1cncc(Br)c1
 : -6 | -0.4 | -15 | 1.3 | -0.9% | -3
- O=C(Cc1ccc(Cl)cc1Cl)Nc1ccncc1
 : 1 | 1.8 | 1 | -0.3 | 9.2% | 4
